Compound activity: PubChem, Broad Institute
Yeast UUG start: modulators of yeast start codon fidelity, primary screen, whole organism, S. cerevisiae, single point, plate reader. S. cerevisiae UUG-firefly luciferase reporter, luminescence/redox ratio. activity score, % at 18.7 µM. 350,000 tested, 0.13% active;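 active means replicate mean at a twofold rise or more, about +100% in these data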;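 further: firefly luciferase made from a UUG start codon reports start codon fidelity; reporter light over untreated wells divided by growth signal over untreated wells; some hits fall short of that in this replicate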
HIV Env fusion: inhibitors of HIV-1 Env-driven cell-cell fusion, primary screen, HeLa-JRFL effector, CEM21 target cells, luciferase | inhibition, % at 12.3 µM | 360,000 tested, 1.1% active | AID 651610, 2012;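 active means mean replicate inhibition score of at least 50 and every replicate individually at or above 50; inconclusive means only one of the two criteria met; inactive means mean below 50 and not all replicates reaching 50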;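 further: 0% = plate neutral controls and 100% = maraviroc near 300 nM; one replicate is shown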
An asterisk follows results filed as active; ? = inconclusive; [ ] = another dose, or the depositor's remark. This is a subset; rates above refer to the full screens.

The opening six compounds, ahead of the listing:
Every second line gives: Yeast UUG start	HIV Env fusion
COc1ccc(CN(C)C[C@@H]2OCCCC[C@H](C)Oc3ccc(NC(=O)Nc4ccc(C(F)(F)F)cc4)cc3C(=O)N([C@@H](C)CO)C[C@H]2C)cc1
→ 7	41[16.7 µM]
C[C@H]1CN([C@@H](C)CO)C(=O)c2cc(C#CC3(O)CCCC3)cnc2O[C@H]1CN(C)Cc1cncnc1
→ 0	-5[16.7 µM]
CCCC#Cc1ccc2c(c1)O[C@@H](CN(C)Cc1cccnc1)[C@@H](C)CN([C@H](C)CO)S2(=O)=O
→ -9	0[16.7 µM]
CCC(=O)Nc1ccc2c(c1)C(=O)N(C)C[C@H](OC)[C@@H](C)CN(C(=O)c1ccc(F)cc1)[C@H](C)CO2
→ -3	-17[16.7 µM]
Cc1noc(C)c1S(=O)(=O)Nc1ccc2c(c1)CC(=O)N([C@H](C)CO)C[C@H](C)[C@@H](CN(C)S(=O)(=O)c1ccc(F)cc1)O2
→ 8	-9[16.7 µM]
C[C@@H]1CN([C@H](C)CO)C(=O)c2cccc(NS(C)(=O)=O)c2O[C@@H]1CN(C)S(C)(=O)=O
→ -19	-3[16.7 µM]

All compounds of this part, from the start:
Every second line gives: Yeast UUG start	HIV Env fusion
COc1ccc(CN(C)C[C@@H]2OCCCC[C@H](C)Oc3ccc(NC(=O)Nc4ccc(C(F)(F)F)cc4)cc3C(=O)N([C@@H](C)CO)C[C@H]2C)cc1
→ 7	41[16.7 µM]
C[C@H]1CN([C@@H](C)CO)C(=O)c2cc(C#CC3(O)CCCC3)cnc2O[C@H]1CN(C)Cc1cncnc1
→ 0	-5[16.7 µM]
CCCC#Cc1ccc2c(c1)O[C@@H](CN(C)Cc1cccnc1)[C@@H](C)CN([C@H](C)CO)S2(=O)=O
→ -9	0[16.7 µM]
CCC(=O)Nc1ccc2c(c1)C(=O)N(C)C[C@H](OC)[C@@H](C)CN(C(=O)c1ccc(F)cc1)[C@H](C)CO2
→ -3	-17[16.7 µM]
Cc1noc(C)c1S(=O)(=O)Nc1ccc2c(c1)CC(=O)N([C@H](C)CO)C[C@H](C)[C@@H](CN(C)S(=O)(=O)c1ccc(F)cc1)O2
→ 8	-9[16.7 µM]
C[C@@H]1CN([C@H](C)CO)C(=O)c2cccc(NS(C)(=O)=O)c2O[C@@H]1CN(C)S(C)(=O)=O
→ -19	-3[16.7 µM]
COc1ccc(CN(C)C[C@@H]2Oc3ccc(NS(C)(=O)=O)cc3CC(=O)N([C@@H](C)CO)C[C@H]2C)cc1
→ -13	4[16.7 µM]
Cc1noc(C)c1NC(=O)N(C)C[C@H]1Oc2c(NS(=O)(=O)c3ccc(Cl)cc3)cccc2C(=O)N([C@@H](C)CO)C[C@@H]1C
→ -6	3[16.7 µM]
COc1ccc(NC(=O)Nc2cccc3c2O[C@H](CN(C)S(=O)(=O)c2ccc(OC)cc2)[C@@H](C)CN([C@@H](C)CO)C3=O)cc1
→ 8	-7[16.7 µM]
C[C@H]1CN([C@@H](C)CO)C(=O)c2cc(Br)cnc2O[C@@H]1CN(C)CC1CCOCC1
→ -1	-2[16.7 µM]
C[C@H]1CN([C@@H](C)CO)C(=O)c2cc(C#CC3CC3)cnc2O[C@@H]1CN(C)C(=O)Cc1ccccn1
→ 3	5[16.7 µM]
C[C@H](CO)N1C[C@H](C)[C@H](CN(C)S(=O)(=O)c2ccccc2)OCCCC[C@H](C)Oc2ccc(NS(=O)(=O)c3cccs3)cc2C1=O
→ -14	-60[16.7 µM]
C[C@H]1CN([C@@H](C)CO)C(=O)Cc2cc(NC(=O)Nc3ccc4c(c3)OCO4)ccc2O[C@@H]1CN(C)C(=O)Nc1ccc(C(F)(F)F)cc1
→ 2	-15[16.7 µM]
C[C@H](CO)N1C[C@H](C)[C@@H](CN(C)Cc2ccccc2)Oc2ccc(NC(=O)Nc3ccc(F)cc3)cc2CC1=O
→ 8	8[16.7 µM]
O=C(C[C@H]1C[C@@H]2c3cc(NC(=O)C4CCC4)ccc3O[C@@H]2[C@H](CO)O1)NCc1ccccc1F
→ -1	6[16.7 µM]
C[C@H](CO)N1C[C@H](C)[C@H](CN(C)S(=O)(=O)c2cccs2)Oc2ccc(NC(=O)Nc3ccc(F)cc3)cc2CC1=O
→ 3	46[16.7 µM]
Cc1noc(C)c1S(=O)(=O)Nc1ccc2c(c1)C(=O)N([C@@H](C)CO)C[C@H](C)[C@H](CN(C)S(=O)(=O)c1ccc(F)cc1)OCCCC[C@H](C)O2
→ 26	47[16.7 µM]
COc1ccc(S(=O)(=O)Nc2ccc3c(c2)C(=O)N([C@H](C)CO)C[C@H](C)[C@H](CN(C)C(=O)NC2CCCCC2)OCCCC[C@@H](C)O3)cc1
→ 5	-9[16.7 µM]
COc1ccccc1-c1cnc2c(c1)C(=O)N([C@H](C)CO)C[C@@H](C)[C@H](CN(C)Cc1cncnc1)O2
→ 10	-7[16.7 µM]
C[C@H]1CN([C@@H](C)CO)C(=O)Cc2cc(NS(=O)(=O)c3cccs3)ccc2O[C@@H]1CN(C)C(=O)Nc1ccc2c(c1)OCO2
→ 3	-8[16.7 µM]
CNC(=O)C[C@@H]1CC[C@H]2[C@H](COc3ccc(NC(=O)c4cccc(OC)c4)cc3C(=O)N2C)O1
→ 16	-19[16.7 µM]
COCC(=O)Nc1ccc2c(c1)C(=O)N(C)[C@H]1CC[C@H](CC(=O)Nc3cccc(C)c3)O[C@@H]1CO2
→ 1	-9[16.7 µM]
CNC(=O)C[C@H]1CC[C@H]2[C@@H](COc3ccc(NS(=O)(=O)c4cccc(F)c4)cc3C(=O)N2C)O1
→ -14	-9[16.7 µM]
Cc1ccc(-c2ccc3c(c2)O[C@H](CN(C)C)[C@@H](C)CN([C@@H](C)CO)S3(=O)=O)cc1
→ -2	11[16.7 µM]
COc1ccccc1-c1cnc2c(c1)C(=O)N([C@@H](C)CO)C[C@@H](C)[C@@H](CN(C)Cc1ccc(F)cc1)O2
→ -5	25[16.7 µM]
CCC(=O)N(C)C[C@H]1Oc2ncc(-c3ccc(C)cc3)cc2C(=O)N([C@H](C)CO)C[C@@H]1C
→ 4	7[16.7 µM]
O=C(Cc1ccccn1)N[C@H]1CC[C@@H](CC(=O)N2CCCCC2)O[C@@H]1CO
→ -7	-24[16.7 µM]
COc1ccccc1-c1ccc2c(c1)O[C@@H](CN(C)C(=O)c1ccccc1)[C@H](C)CN([C@@H](C)CO)S2(=O)=O
→ 15	-54[16.7 µM]
C[C@H]1CN([C@@H](C)CO)S(=O)(=O)c2ccc(C#Cc3ccccn3)cc2O[C@@H]1CN(C)Cc1cccc(F)c1
→ 3	-55[16.7 µM]
C[C@H](CO)N1C[C@H](C)[C@H](CN(C)Cc2cncnc2)Oc2ncc(C#CC(C)(C)O)cc2C1=O
→ 14	-5[16.7 µM]

Continued:
smiles	Yeast UUG start	HIV Env fusion
C[C@@H]1CCCCO[C@H](CN(C)S(=O)(=O)c2ccccc2)[C@H](C)CN([C@H](C)CO)C(=O)c2cc(NC(=O)Nc3ccc(C(F)(F)F)cc3)ccc2O1	-1	20[16.7 µM]
C[C@@H]1CN([C@H](C)CO)C(=O)c2cc(NS(C)(=O)=O)ccc2O[C@@H](C)CCCCO[C@@H]1CN(C)C(=O)c1ccccc1	7	3[16.7 µM]
C[C@H]1CN([C@@H](C)CO)C(=O)c2cc(C#CCC3CCCC3)cnc2O[C@@H]1CN(C)C(=O)c1cnccn1	12	12[16.7 µM]
Cc1ccc(S(=O)(=O)N(C)C[C@H]2Oc3c(NS(=O)(=O)c4ccc(Cl)cc4)cccc3C(=O)N([C@@H](C)CO)C[C@H]2C)cc1	-4	-23[16.7 µM]
Cc1ccc(S(=O)(=O)Nc2cccc3c2O[C@@H](CN(C)C(=O)Nc2ccc(C(F)(F)F)cc2)[C@H](C)CN([C@H](C)CO)C3=O)cc1	2	44[16.7 µM]
COc1ccc(S(=O)(=O)N(C)C[C@@H]2Oc3ccc(NC(=O)Nc4ccc(F)cc4)cc3CC(=O)N([C@@H](C)CO)C[C@H]2C)cc1	13	15[16.7 µM]
COc1ccc(S(=O)(=O)Nc2ccc3c(c2)C(=O)N([C@H](C)CO)C[C@H](C)[C@H](CN(C)S(=O)(=O)c2ccc(Cl)cc2)OCCCC[C@H](C)O3)cc1	-5	-14[16.7 µM]
CCCNC(=O)C[C@H]1C[C@@H]2c3cc(NC(=O)C4CCOCC4)ccc3O[C@@H]2[C@H](CO)O1	-20	10[16.7 µM]
C[C@H]1CCCCO[C@H](CN(C)S(=O)(=O)c2ccccc2)[C@@H](C)CN([C@@H](C)CO)C(=O)c2cc(NC(=O)Nc3cccc4ccccc34)ccc2O1	-13	-9[16.7 µM]
COCC(=O)N(C)C[C@@H]1Oc2cc(-c3ccncc3)ccc2S(=O)(=O)N([C@@H](C)CO)C[C@H]1C	-6	17[16.7 µM]
C[C@@H]1CN([C@H](C)CO)C(=O)c2cccc(NC(=O)c3cnccn3)c2O[C@@H]1CN(C)C(=O)Nc1ccc(F)cc1	10	-10[16.7 µM]
CCCC(=O)Nc1ccc2c(c1)C(=O)N(C)C[C@@H](OC)[C@@H](C)CN(C(=O)c1ccncc1)[C@@H](C)CO2	-6	-4[16.7 µM]
Cc1noc(C)c1S(=O)(=O)Nc1ccc2c(c1)CC(=O)N([C@H](C)CO)C[C@H](C)[C@@H](CN(C)Cc1ccc(Oc3ccccc3)cc1)O2	17	0[16.7 µM]
CCCNC(=O)N(C)C[C@H]1Oc2cc(C3=CCCC3)ccc2S(=O)(=O)N([C@@H](C)CO)C[C@@H]1C	-8	-3[16.7 µM]
C[C@H](CO)N1C[C@H](C)[C@H](CN(C)S(C)(=O)=O)Oc2ccc(NC(=O)C3CCCCC3)cc2C1=O	8	-3[16.7 µM]
O=C(Nc1cccc(Cl)c1)N[C@@H]1CC[C@@H](CCNC(=O)C2CCC2)O[C@@H]1CO	-5	0[16.7 µM]
COCC(=O)Nc1ccc2c(c1)OC[C@@H](C)N(Cc1ccccc1C(=O)O)C[C@@H](C)[C@H](OC)CN(C)C2=O	14	?
CCCN(C)C[C@@H]1Oc2cc(C#Cc3ccc(F)cc3)ccc2S(=O)(=O)N([C@@H](C)CO)C[C@@H]1C	-1	14[16.7 µM]
C[C@H](CO)N1C[C@H](C)[C@H](CN(C)S(=O)(=O)c2cccs2)Oc2c(NC(=O)c3ccc(-c4nccs4)cc3)cccc2C1=O	15	26[16.7 µM]
C[C@@H]1CN([C@H](C)CO)S(=O)(=O)c2ccc(C#Cc3ccccc3)cc2O[C@H]1CN(C)C(=O)Cc1ccccn1	-9	27[16.7 µM]
C[C@@H]1CN([C@@H](C)CO)C(=O)Cc2cc(NC(=O)C3CCCCC3)ccc2O[C@H]1CN(C)CC1CCCCC1	7	9[16.7 µM]
C[C@@H]1CN([C@@H](C)CO)C(=O)Cc2cc(NC(=O)Nc3ccc(C(F)(F)F)cc3)ccc2O[C@@H]1CN(C)CC1CCCCC1	0	-5[16.7 µM]
C[C@H](CO)N1C[C@H](C)[C@H](CN(C)Cc2ccccc2)Oc2ccc(NC(=O)Cn3cnnn3)cc2C1=O	-8	0[16.7 µM]
C[C@@H]1CN([C@@H](C)CO)C(=O)c2cccc(NS(=O)(=O)c3ccccc3)c2O[C@@H]1CN(C)CC1CCCCC1	8	-21[16.7 µM]
O=C(C[C@H]1C[C@H]2c3cc(NC(=O)Nc4ccccc4)ccc3O[C@H]2[C@@H](CO)O1)NCc1ccncc1	-11	14[16.7 µM]
C[C@H]1CCCCO[C@@H](CN(C)Cc2ccncc2)[C@@H](C)CN([C@@H](C)CO)C(=O)c2cc(NC(=O)NC3CCCCC3)ccc2O1	-10	4[16.7 µM]
COc1ccc(S(=O)(=O)Nc2ccc3c(c2)CC(=O)N([C@H](C)CO)C[C@H](C)[C@H](CN(C)S(=O)(=O)c2ccc(C)cc2)O3)cc1	4	99*[16.7 µM]
CNC(=O)C[C@@H]1CC[C@@H]2[C@@H](COc3ccc(NC(=O)c4ccccc4OC)cc3C(=O)N2C)O1	-4	3[16.7 µM]
C[C@@H]1CCCCO[C@@H](CN(C)S(=O)(=O)c2ccccc2)[C@H](C)CN([C@@H](C)CO)C(=O)c2cc(NC(=O)Nc3ccc4c(c3)OCO4)ccc2O1	-11	2[16.7 µM]
C[C@@H]1CCCCO[C@@H](CN(C)C(=O)CCC(F)(F)F)[C@@H](C)CN([C@@H](C)CO)C(=O)c2cc(NC(=O)NC3CCCCC3)ccc2O1	30	-5[16.7 µM]
C[C@H]1CCCCO[C@H](CN(C)C(=O)c2ccncc2)[C@@H](C)CN([C@@H](C)CO)C(=O)c2cc(N(C)C)ccc2O1	8	8[16.7 µM]
O=C(C[C@@H]1C=C[C@@H](NC(=O)C2CCOCC2)[C@H](CO)O1)NCC1CC1	-11	0[16.7 µM]
C[C@@H]1CCCCO[C@@H](CN(C)Cc2ccccc2)[C@@H](C)CN([C@H](C)CO)C(=O)c2cc(NS(=O)(=O)c3ccccc3)ccc2O1	-13	-16[16.7 µM]
O=S(=O)(N[C@H]1CC[C@H](CCn2cc(-c3cccnc3)nn2)O[C@H]1CO)c1ccc(Cl)cc1	17	-13[16.7 µM]
